Compound activity from PubChem.
A1 inh – caspase 3/7 activation in MEF A1-2A-BIM cells, primary screen, A1 inhibitor project, cell-based, luminescence, HTS | Caspase-Glo 3/7 luminescence, 3 h; percent of clofoctol response, vehicle zero | caspase activation, % (concentration not given with the values) | 0.066% of 330,000 active;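 active means over half of replicate activation scores above 10%, or exactly half above 10 with the replicate mean above 10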;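 further: wells of about 30 µL received 50 nL stock; many hits fall short of the cut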
Ecoli growth – E. coli growth inhibition, primary screen, OD600; Escherichia coli growth, 23 h; hits give low values; OD600 absorbance (test concentration not listed); 0.21% of 330,000 active; AID 1053175, 2014;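 active means OD600 absorbance below the run mean of sample wells minus 3.6 SD, in any replicate, cut at about 0.56 in these data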;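 further: stock transfer was 300 nL into about 60 µL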
FGF22 binding – binders of human FGF22 protein, primary screen, FGF22 synaptogenesis inhibitor project, biophysical, thermal shift, single point; recombinant FGF22 thermal shift, SYPRO orange fluorescence; percent of sucrose octasulfate shift, DMSO zero; 1.5% of 340,000 active; calls only at 9.99 µM; Fibroblast growth factor 22 (Homo sapiens), Q9HCT0;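 active means melting point raised past a set limit in the mean and every replicate; three in four hits are not shown here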
Target sequence (Q9HCT0 whole entry, looked up): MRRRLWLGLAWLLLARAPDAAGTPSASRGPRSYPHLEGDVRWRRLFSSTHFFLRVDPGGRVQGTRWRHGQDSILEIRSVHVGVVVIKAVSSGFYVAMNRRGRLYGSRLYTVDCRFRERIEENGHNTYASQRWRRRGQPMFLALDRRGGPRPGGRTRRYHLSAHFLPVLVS
UCH37 inh – inhibitors of human UCH37 deubiquitinase, primary screen, biochemical, Ub-AMC cleavage, fluorescence; inhibition, % (no concentration beside the values); 0.33% of 330,000 active; Ubiquitin carboxyl-terminal hydrolase isozyme L5 (Homo sapiens), Q9Y5K5; purified proteasome/UCH37;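 active means mean of two replicates above 20%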;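 further: 0% = compound-free wells with enzyme and 100% = wells lacking proteasome; stock transfer was 100 nL into about 20 µL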
Target sequence (Q9Y5K5 whole entry, looked up): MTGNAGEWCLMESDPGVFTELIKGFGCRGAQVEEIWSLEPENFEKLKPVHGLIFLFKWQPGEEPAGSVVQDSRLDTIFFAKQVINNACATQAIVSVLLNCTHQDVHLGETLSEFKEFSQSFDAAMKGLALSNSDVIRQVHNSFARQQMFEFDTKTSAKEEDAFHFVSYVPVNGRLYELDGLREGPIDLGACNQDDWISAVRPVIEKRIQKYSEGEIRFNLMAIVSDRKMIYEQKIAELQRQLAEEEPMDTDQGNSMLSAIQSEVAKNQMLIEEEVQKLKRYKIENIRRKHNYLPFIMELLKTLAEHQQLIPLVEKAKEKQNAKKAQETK
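Material: Human UCH37 enzyme supplied as purified proteasome complex | Schedule: 30 min compound-proteasome preincubation then 25 min substrate reaction, room temperature | Detection: AMC fluorescence from Ub-AMC cleavage, excitation 355 nm, emission 460 nm | Benchmarks: Wells without proteasome as full block, compound-free enzyme plus substrate as uninhibited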
MLL AF4-AF9 inh – inhibitors of AF4 peptide binding to AF9, primary screen, biochemical, AlphaScreen, biotin-AF4 peptide, FLAG-AF9, single point; Protein AF-9 (Homo sapiens), P42568; AID 651704, 2012; 0.47% of 350,000 active; inhibition, % at 10 µM;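 active means every replicate reaching a set inhibition limit, whatever the replicate mean, cut at about 25% in these data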;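 further: 0% = plate neutral control median and 100% = total signal loss; the record names both 10 and 1 µM as test concentration; the first replicate is given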
Target sequence (P42568 whole entry, looked up): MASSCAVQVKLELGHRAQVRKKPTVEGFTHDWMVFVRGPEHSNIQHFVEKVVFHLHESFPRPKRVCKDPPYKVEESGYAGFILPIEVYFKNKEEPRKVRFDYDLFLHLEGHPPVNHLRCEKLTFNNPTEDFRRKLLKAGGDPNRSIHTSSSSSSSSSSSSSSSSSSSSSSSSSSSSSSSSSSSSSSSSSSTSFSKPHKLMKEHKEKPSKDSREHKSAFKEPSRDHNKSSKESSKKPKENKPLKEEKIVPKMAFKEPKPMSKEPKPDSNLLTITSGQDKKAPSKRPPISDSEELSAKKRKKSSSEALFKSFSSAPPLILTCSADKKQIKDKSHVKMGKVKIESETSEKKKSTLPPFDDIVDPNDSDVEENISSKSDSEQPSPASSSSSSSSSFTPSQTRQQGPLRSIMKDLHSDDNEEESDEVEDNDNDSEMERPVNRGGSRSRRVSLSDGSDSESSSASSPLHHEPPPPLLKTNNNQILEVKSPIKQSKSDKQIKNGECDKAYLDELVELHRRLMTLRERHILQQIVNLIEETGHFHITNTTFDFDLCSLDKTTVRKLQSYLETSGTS
T cruzi inh – inhibitors of intracellular T. cruzi growth, primary screen, luminescence, NIH3T3 host cells | 1.4% of 300,000 active | T. cruzi beta-gal in NIH3T3, 90 h | inhibition, % (concentration not given with the values);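 active means mean inhibition across valid replicates above about 55%, limit read from the data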;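 further: signal also drops with host cell toxicity which is not excluded here; 0% = plate median of DMSO wells and 100% = zero luminescence signal; higher percent means less beta-gal luminescence so fewer parasites; stock transfer was 50 nL into about 50 µL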
rRNA inh HTS – reduced GFP signal of wild-type E. coli, primary screen, bacterial rRNA inhibitor project, GFP/RFP fluorescence, OD600, single point | 1.6% of 350,000 active | AID 720706, 2013 | GFP signal change (wild-type ribosome), % (concentration not given with the values) | E. coli WT GFP vs humanized-ribosome RFP mutants, 24 h; hits give low values; DMSO median 0, no signal -100;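 active means significant combined selectivity score with lowered wild-type GFP, culture density cut under 30%, mutant RFP and density less affected; inactive means any of these conditions unmet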; further: one replicate is shown; some compounds called inactive have numbers as strong as hits
Beta apoptosis – inhibitors of cytokine-induced beta cell apoptosis, primary screen, luminescence. 0.8% of 300,000 active. protection from apoptosis, % (concentration not given with the values). AID 435005, 2010. INS-1E cytokine-induced death, ATP luminescence, 48 h; percent of positive-control rescue, neutral wells zero;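 active means all replicates at 75% or more, or half of them and the mean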;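 further: 0% = cytokine-treated negative control wells and 100% = positive control rescue; higher means more ATP so stronger rescue from cytokine killing; wells of about 40 µL received 100 nL stock; the first replicate is given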
rRNA inh HTS OD600 – also measured in rRNA inh HTS; calls as there; OD600 change, %; measured here: OD600 growth;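 optical density of the mix in the first replicate; 0 = DMSO median and -100 = no signal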
rRNA inh HTS RFP – further read-out of rRNA inh HTS, marked with its call; RFP signal change, %; measured here: RFP humanized mutant strains;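 first replicate; 0 = DMSO median and -100 = no signal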
* = called active by the depositor; i = inactive; nt = no result given.

Under each structure: A1 inh	Ecoli growth	FGF22 binding	UCH37 inh	MLL AF4-AF9 inh	T cruzi inh	rRNA inh HTS	rRNA inh HTS OD600	rRNA inh HTS RFP	Beta apoptosis
Cc1ccc2cc(C3CC(c4cccs4)=NN3S(C)(=O)=O)c(Cl)nc2c1 (stereo not given)
    -0.5	0.66	i	5.8	1.9	2	5	5	-0.3	-3
COc1ccc(NC(=O)CN(C)C(=O)c2cccc(S(=O)(=O)Nc3ccc(F)cc3)c2)cc1
    0.6	0.7	i	2.5	3.2	nt	1	0	1.3	-3
Cc1ccc(C)c(NC(=O)c2cc(-c3ccccc3O)n[nH]2)c1
    -2.8	0.7	i	0.3	0.1	3	0	10	0.4	1
CCC(C)N(C(=O)COC(=O)C1CCN(S(=O)(=O)c2ccc(C)c(C)c2)CC1)C1CCS(=O)(=O)C1 (stereo not given)
    0.2	0.6	i	0.3	-0.6	7	7	13	-1.2	-8
N#Cc1ccccc1Sc1ccccc1C(=O)NCC(c1ccco1)N1CCCCC1 (stereo not given)
    -0.3	0.68	i	1.5	4.0	nt	-3	-4	3.3	-3
CCOc1ccc(NC(=S)N2CCCC2)cc1
    -1.3	0.62	i	0.0	0.7	nt	6	6	-1.3	0
CCN(CC)c1cc(-c2ccccc2)ncn1
    -0.8	0.61	nt	3.9	nt	0	nt	nt	nt	3
NS(=O)(=O)c1cc(C(=O)NCC2CCCCC2)ccc1Cl
    -0.2	0.66	i	1.7	-0.7	-7	5	9	-1.0	1
Cc1oc2c(C)c3oc(=O)c(CCC(=O)N[C@@H](CC(C)C)C(=O)O)c(C)c3cc2c1C
    -0.1	0.67	i	-52	-1.5	-13	-13	-10	3.5	5
O=c1c2ccccc2nc(/C=C/c2ccc([N+](=O)[O-])o2)n1CCCO
    0.1	0.68	nt	11	nt	62*	nt	nt	nt	2
Cc1ccc(CNC(=O)CN(C(=O)C2(C)CC(=O)N=C3C=CC=CN32)c2ccc(F)cc2)cc1 (stereo not given)
    0.1	0.66	i	-475	-1.3	-2	13	10	2.0	-5
COc1ccc(CCN2CC(C(=O)OC(C)C(=O)Nc3cccc(Cl)c3)CC2=O)cc1OC (stereo not given)
    -0.2	0.67	i	3.8	-0.6	nt	-6	-8	-1.1	-2
CC(=O)NC(CSc1cc(C)nc2ccc(Br)cc12)C(=O)O (stereo not given)
    0.4	0.66	i	6.5	-7.2	-39	8	3	-1.2	-3
COc1ccc(Br)cc1-c1nc(C)c(C(C)=O)n1O
    -0.4	0.7	nt	1.5	nt	7	nt	nt	nt	nt
Nc1nc(NCCc2ccccc2)nc(NCCO)c1[N+](=O)[O-]
    -0.5	0.69	i	15	-3.4	-17	13	8	10	-4
COc1ccc(-c2cc(=O)oc3cc(OCC(=O)N4C[C@H]5C[C@@H](C4)c4cccc(=O)n4C5)ccc23)cc1
    0.3	0.68	i	-2.8	-1.6	12	-10	-31	-8.2	-6
O=C(CCCCn1c(=O)c2ccccc2n(Cc2ccc(Cl)cc2)c1=O)NCc1ccco1
    2.4	0.79	nt	0.8	nt	15	nt	nt	nt	8
COc1ccc(OC)c(C2C(C(=O)N(C)C)=C(C)Nc3nc4ccccc4n32)c1 (stereo not given)
    0.3	0.69	nt	5.0	nt	8	nt	nt	nt	-5
Cc1ccnc(SCC(=O)c2cc3ccccc3o2)n1
    -1.5	0.69	i	0.6	-8.1	-11	3	6	2.9	-1
Cc1cccnc1NC(=O)c1ccc([N+](=O)[O-])o1
    -0.9	0.58	nt	-10	nt	30	nt	nt	nt	-7
CCCCn1c(Cl)nc2c1c(=O)n(C)c(=O)n2C
    0.0	0.77	nt	-1.5	nt	-5	nt	nt	nt	4
CCSc1nnc(-c2ccccc2SC)o1
    0.2	0.63	i	-0.9	-0.6	-5	-8	-26	-3.2	nt
O=C(COC(=O)C(O)C(O)C(=O)OCC(=O)c1ccc(C(F)(F)F)cc1)c1ccc(C(F)(F)F)cc1 (stereo not given)
    1.1	0.65	i	3.8	-1.8	-26	8	9	2.3	1
CC1(C)CC(=O)N(c2cccc(C(F)(F)F)c2)C(=O)C1
    1.8	0.69	i	4.3	-0.2	0	5	9	-2.0	-6
O=C(c1ccc(COc2ccc3ccccc3c2)o1)N1N=C(C(F)F)CC1(O)C(F)F (stereo not given)
    3.1	0.65	i	2.8	-43	33	8	14	3.2	14
COc1ccc(-c2ccc(-c3noc(-c4ccccc4C)n3)c(OC)n2)cc1
    -0.3	0.72	nt	-2.7	nt	19	nt	nt	nt	-4
CCC(=O)Nc1nc2nc(-c3ccccc3)cc(-c3ccccc3)n2n1
    -0.3	0.71	nt	-141	nt	7	nt	nt	nt	2
Cc1ccc(CCNC(=O)CCNS(=O)(=O)c2ccc3c(c2)c(=O)n(C)c(=O)n3C)cc1
    -0.2	0.64	nt	-1.8	nt	-43	nt	nt	nt	-5
O=C(COC(=O)c1cccc(O)c1)Nc1nnc(-c2ccccc2)o1
    0.4	0.65	i	-0.7	0.9	-6	-17	-39	-0.6	-5
O=C(O)c1ccccc1C(=O)Nc1ccc(-n2nc(C(F)(F)F)cc2C(F)(F)F)cc1
    0.0	0.67	i	4.0	-2.5	-4	-17	-11	-4.8	-11
O=c1c2cnn(-c3ccccc3)c2ncn1CCc1ccccc1
    -0.6	0.72	i	1.9	0.8	6	23	11	0.8	-4
O=C(NC(Cc1ccccc1)C(=O)NCc1ccccn1)c1ccco1 (stereo not given)
    nt	0.62	nt	0.0	nt	-15	nt	nt	nt	1
O=C(NCc1cccnc1)c1ccc(COc2ccccc2Cl)o1
    0.9	0.64	i	1.1	-3.3	6	-24	-20	1.8	2
COc1ccc(C(=O)NNC(=O)Nc2ccc(C)cc2)cc1
    1.7	0.72	nt	2.9	nt	-8	nt	nt	nt	0
CCN(CC(=O)NCCc1ccccc1)S(=O)(=O)c1ccc(Br)cc1
    1.0	0.69	i	2.3	-4.1	7	-8	-15	-1.3	nt
S=C(NCCc1ccccc1)Nc1ccc(Br)cc1
    0.2	0.64	i	6.1	-10	13	-15	-12	-3.7	0
COC(=O)c1ccccc1NC(=O)Cn1cnc([N+](=O)[O-])c1
    1.0	0.67	i	4.5	-3.2	-14	7	13	-3.5	nt
Cc1csc(NC(=O)CCNC(=O)c2ccc([N+](=O)[O-])cc2)n1
    -0.2	0.67	nt	-1.4	nt	30	nt	nt	nt	1
COCCOCC(O)CN1CCN(c2ccccc2)CC1 (stereo not given)
    -1.5	0.73	nt	3.4	nt	-8	nt	nt	nt	1
O=C(Nc1ccc2c(c1)OCO2)C1CC1(Cl)Cl (stereo not given)
    0.7	0.68	i	2.0	-0.7	nt	-2	3	-3.0	0
CCc1noc(C)c1C(=O)Nc1cc(Cl)ccc1-n1cncn1
    0.9	0.67	i	-0.9	2.8	1	4	7	0.5	-1
Cc1ccc(C(=O)NCC(=O)OCCCOC(=O)CNC(=O)c2ccc(C)c(C)c2)cc1C
    0.6	0.64	i	1.1	0.0	nt	nt	nt	nt	3
CCOc1ccc(C(=O)N2CCN(C(=O)c3ccco3)CC2)cc1OCC
    0.0	0.66	i	1.3	5.8	6	8	-1	-0.5	-2
O=C1CCCc2c1[nH]c1ccc(Br)cc21
    -0.3	0.67	nt	3.2	nt	9	nt	nt	nt	-6
CCOC(=O)Nc1cc(C(=O)OCC)c(C)nc1C
    0.2	0.68	nt	3.8	nt	-3	nt	nt	nt	4
Cc1nc(N2CCOCC2)[nH]c(=O)c1CCC(C)C
    0.2	0.69	nt	5.4	nt	3	nt	nt	nt	-5
CCOc1cc(N2CCOCC2)c(OCC)cc1NC(=O)COC(=O)c1ccccc1OC(F)F
    nt	0.69	i	-0.3	-13	nt	-4	2	-3.2	nt
COC(=O)c1cn(CC(=O)NCc2ccco2)c2ccccc12
    2.0	0.7	nt	2.0	nt	6	nt	nt	nt	-4
CCOc1ccc(NC(=O)CN(C)C(=O)CC2CCCC2)cc1OCC
    0.8	0.67	i	3.8	0.7	nt	-4	-10	5.1	2
Cn1c(=O)c(C(=O)Nc2ncccc2O)c(O)c2ccccc21
    0.7	0.68	nt	9.2	nt	0	nt	nt	nt	4

Next part:
Under each structure: A1 inh	Ecoli growth	FGF22 binding	UCH37 inh	MLL AF4-AF9 inh	T cruzi inh	rRNA inh HTS	rRNA inh HTS OD600	rRNA inh HTS RFP	Beta apoptosis
CCC(=O)Nc1nc2ccccc2n1CCN(CC)CC
    0.3	0.7	nt	0.6	nt	3	nt	nt	nt	1
Cc1ccc(S(=O)(=O)N2CCOCC2)cc1NC(=O)COC(=O)/C=C/c1ccco1
    -0.2	0.69	i	2.4	-5.7	nt	5	12	1.4	-2
NS(=O)(=O)c1ccc(NC(=S)N2CCC(O)CC2)cc1
    1.8	0.69	i	-0.5	-2.7	3	18	16	2.0	-8
Oc1ccc(Cl)cc1-c1cc(-c2ccccc2)n[nH]1
    -0.1	0.68	i	4.7	-9.2	6	-58	-78	-17	11
CC(=O)Oc1ccc2c(=O)oc(-c3ccc([N+](=O)[O-])cc3)nc2c1
    -4.6	0.69	i	9.5	0.6	-4	5	9	8.5	1
CC1(C)C2CCC1(C)C(OC(=O)CNc1ccccc1)C2 (stereo not given)
    0.1	0.69	i	3.9	1.0	-2	-9	-8	2.6	5
CCOC(=O)c1c(CN(C)C)n(C)c2c(O)c(N=NC(N)=O)c3ccc(Br)cc3c12
    -0.6	0.69	i	52*	-24	11	2	-2	0.7	-6
O=C(NCc1ccccc1)c1ccc(Br)cc1
    -0.2	0.64	nt	3.0	-20	-22	1	-1	3.7	-1
Cc1ccc(Nc2ccc(C(=O)NC3CCCCC3)cn2)cc1
    -4.7	0.73	i	-13	-3.8	6	-1	0	0.0	2
Cc1ccccc1NC(=O)CN1CCN(Cc2ccccc2)CC1
    2.0	0.64	i	-1.3	0.6	9	8	4	0.1	30
CCNC(=S)NNc1ccccc1
    0.4	0.6	i	1.4	1.4	-20	7	9	0.1	0
CC(NC(=O)c1ccco1)c1nc(-c2ccc(Cl)cc2)no1 (stereo not given)
    -0.1	0.64	i	3.1	1.8	6	-9	-21	-1.7	1
CCOc1ccc(S(=O)(=O)c2c[nH]c3ccc(C)cc3c2=O)cc1
    -0.7	0.67	i	3.1	-1.4	-2	9	11	-0.9	nt
Cc1ccc(CN2CCN(Cc3cccn3-c3nccs3)CC2CCO)cc1 (stereo not given)
    1.3	0.67	i	6.4	8.8	23	1	8	1.4	1

A portion of the library; the hit share may differ from the screen's.
